Screens (PubChem BioAssay)
Polio RdRp inh = poliovirus RdRp elongation inhibitors, primary screen, biochemical, fluorescence polarization, total intensity | Genome polyprotein (Poliovirus type 1 (strain Mahoney)), P03300 | poliovirus polymerase elongation; hits give low values | % elongation, % (compound at 16.7 µg/mL) | 150,000 tested, 0.66% active | AID 588519, 2011; in the data active means % elongation below about 90%; further: some results filed as inactive read as strong as hits
MenB inh = M. tuberculosis MenB inhibitors, primary screen, biochemical, absorbance; MenB enzyme assay, absorbance read-out; some hits fall short of the stated cut; inhibition, %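 (about 12 µg/mL by stock and volumes)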; 100,000 tested, 0.43% active; AID 540299, 2011;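 active means mean of two replicates above 30%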;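 further: 0% = no compound and 100% = wells with inactive enzyme; the first replicate is given; strong numbers were not always called active; inactives centre near -10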
Target sequence (P9WNP5 whole entry, looked up): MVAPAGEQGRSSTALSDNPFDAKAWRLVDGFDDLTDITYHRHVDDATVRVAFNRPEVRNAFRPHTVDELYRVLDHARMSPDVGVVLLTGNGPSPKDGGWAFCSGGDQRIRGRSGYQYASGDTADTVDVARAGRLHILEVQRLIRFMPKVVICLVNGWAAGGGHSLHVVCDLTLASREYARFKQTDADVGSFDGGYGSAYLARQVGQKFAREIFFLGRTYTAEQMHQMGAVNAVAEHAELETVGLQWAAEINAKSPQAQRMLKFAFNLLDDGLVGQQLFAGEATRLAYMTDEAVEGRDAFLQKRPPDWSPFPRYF
MbtI inh = MbtI salicylate synthase inhibitors, primary screen, biochemical, fluorescence intensity. inhibition, %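 (about 17 µg/mL by stock and volumes)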. P9WFX0. 100,000 tested, 0.89% active. purified MbtI enzyme, fluorescence intensity read-out;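 active means above 50% in both replicates, above 80% if mildly self-fluorescent; inactive means the rest, strongly fluorescent compounds included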;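 further: 0% = mean of negative and 100% = mean of positive controls; one replicate is shown; some compounds called inactive have numbers as strong as hits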
Target sequence (P9WFX0 whole entry, looked up): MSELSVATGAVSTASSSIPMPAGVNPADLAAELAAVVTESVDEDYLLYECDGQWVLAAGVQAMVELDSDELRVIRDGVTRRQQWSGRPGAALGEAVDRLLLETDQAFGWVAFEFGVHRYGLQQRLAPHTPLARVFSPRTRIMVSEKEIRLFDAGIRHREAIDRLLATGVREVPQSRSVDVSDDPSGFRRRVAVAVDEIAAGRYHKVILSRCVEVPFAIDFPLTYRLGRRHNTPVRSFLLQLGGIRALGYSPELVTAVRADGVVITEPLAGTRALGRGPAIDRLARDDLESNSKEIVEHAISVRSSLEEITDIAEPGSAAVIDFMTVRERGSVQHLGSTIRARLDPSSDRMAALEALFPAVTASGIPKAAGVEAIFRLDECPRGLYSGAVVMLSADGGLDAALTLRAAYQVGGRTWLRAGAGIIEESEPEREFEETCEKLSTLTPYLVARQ
Polio RdRp inh intensity = second read-out of Polio RdRp inh, no call of its own (marks repeat the call); % elongation; measured here: total intensity read-out; formula for this scale not given here;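 total fluorescence in place of polarization; lower means less elongation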
* marks the source's active call; other numbers are inactive results; . = no result given.

SMILES | Polio RdRp inh | Polio RdRp inh intensity | MenB inh | MbtI inh
Cc1ccc(NC(=O)C2CCCN2S(=O)(=O)c2ccc(Cl)cc2)cc1 (configuration not stated) | 99 | 95 | . | -16
CC1=NN(c2ccccc2)C(c2ccccc2)C1 (configuration not stated) | 103 | 103 | -23 | 5
FC1(F)C2C3CC4C5C3C1C5C(F)(F)C42 (configuration not stated) | 100 | 95 | 7 | 14
CCc1nnc2c(N3CCCc4ccccc43)nc3ccccc3n12 | 102 | 100 | 5 | 10
Cc1cc(NC(=S)NC(=O)c2cn(-c3ccccc3)nc2-c2cccc(Br)c2)no1 | 106 | 94 | -37 | -5
Cc1ccc(C(=O)Nc2ccc(Br)cc2C)cc1I | 103 | 109 | -10 | -8
CCN(c1ccc(OC)cc1)S(=O)(=O)c1ccc2c(c1)CCCC(=O)N2 | 100 | 100 | -4 | -1
O=C(CCN1C(=O)c2ccccc2C1=O)N1CCN(c2cccc(Cl)c2)CC1 | 105 | 101 | -13 | -12
Cc1cc(/C=C(/C#N)C(=O)NCc2ccccc2)c(C)n1-c1cccnc1 | 101 | 101 | -87 | -55
CCCc1oc2c(c(=O)c1CC)C(=O)CC(C)(C)C2 | 99 | 105 | 3 | -13
O=C(CC1CCCCC1)N1CCN(c2ccccc2)CC1 | 101 | 101 | 23 | 3
CC1(C)CC(O)c2ccccc2O1 (configuration not stated) | 98 | 102 | 7 | -3
O=C(O)C1C2C=CC(C2)C1C(=O)N(Cc1ccccc1)Cc1ccccc1 (configuration not stated) | 105 | 98 | -64 | -15
Cc1nc(N2CC(C)OC(C)C2)c2nnn(Cc3c(F)cccc3Cl)c2n1 (configuration not stated) | 103 | 103 | 33 | 4
CC(C(=O)c1ccc(Cl)cc1)n1nc(-c2ccco2)ccc1=O (configuration not stated) | 101 | 102 | -16 | 17

Grouped by structure, the entries above containing bromine.
SMILES | Polio RdRp inh | Polio RdRp inh intensity | MenB inh | MbtI inh
Cc1cc(NC(=S)NC(=O)c2cn(-c3ccccc3)nc2-c2cccc(Br)c2)no1 | 106 | 94 | -37 | -5
Cc1ccc(C(=O)Nc2ccc(Br)cc2C)cc1I | 103 | 109 | -10 | -8

(further entries)
SMILES | Polio RdRp inh | Polio RdRp inh intensity | MenB inh | MbtI inh
O=C(COc1c(CO)cc(Br)cc1CO)NC1CCCc2ccccc21 (configuration not stated) | 104 | 108 | 8 | -1
Cc1ccc2nc(NCC(c3c(F)cccc3Cl)N(C)C)cc(=O)n2c1 (configuration not stated) | 100 | 100 | -50 | 2
COc1ccc(C2(CNC(=O)c3ccc(NC(=O)c4ccco4)cc3)CCOCC2)cc1 | 103 | 104 | -13 | -11
COc1ccc(CN(CCN2CCOCC2)C(=O)c2cc3sccc3n2Cc2ccccc2)cc1 | 102 | 102 | -42 | 15
Cc1cccc(N2CCN(C(=O)CSc3nc4ccccc4nc3N3CC(C)OC(C)C3)CC2)c1C (configuration not stated) | 100 | 102 | -1 | 6
Cc1oc(S(=O)(=O)N2CCCCC2)cc1C(=O)Nc1ccccc1 | 102 | 104 | -12 | -11
O=C(NCC1COc2ccccc2O1)c1ccc2c(c1)OCCO2 (configuration not stated) | 105 | 105 | -31 | -5
Cc1nn(C)c(C)c1Sc1ccccc1N | 100 | 104 | . | -4
Cc1cc(C(=O)Cn2cnc3sc4c(c3c2=O)CCC(C)C4)c(C)n1Cc1ccco1 (configuration not stated) | 106 | 109 | -18 | -1
CCOc1cc(C(=O)Nc2ccc(N3CCCC3=O)cc2)cc(OCC)c1OCC | 101 | 102 | -48 | -11
CCc1ccc(NC(=O)CSc2c3c(nc4ccccc24)CCCC3)cc1 | 97 | 105 | -54 | -7
O=C1CCC(=O)N1CNc1ccccc1 | 102 | 104 | 25 | -12
Cc1ccc(-c2csc3nc(CCl)[nH]c(=O)c23)cc1 | 102 | 102 | . | 17
CC(OC(=O)c1cc2sccc2n1C)C(=O)NC1CCCC1 (configuration not stated) | 102 | 103 | -36 | -2
O=S(=O)(c1cccc2ccccc12)N1CCCCC1 | 100 | 97 | -40 | 15

Retrieved one by one from the entries so far (6):
SMILES | Polio RdRp inh | Polio RdRp inh intensity | MenB inh | MbtI inh
O=C(COc1c(CO)cc(Br)cc1CO)NC1CCCc2ccccc21 (configuration not stated) | 104 | 108 | 8 | -1
Cc1ccc2nc(NCC(c3c(F)cccc3Cl)N(C)C)cc(=O)n2c1 (configuration not stated) | 100 | 100 | -50 | 2
CCOc1cc(C(=O)Nc2ccc(N3CCCC3=O)cc2)cc(OCC)c1OCC | 101 | 102 | -48 | -11
COc1ccc(C2(CNC(=O)c3ccc(NC(=O)c4ccco4)cc3)CCOCC2)cc1 | 103 | 104 | -13 | -11
CCc1ccc(NC(=O)CSc2c3c(nc4ccccc24)CCCC3)cc1 | 97 | 105 | -54 | -7
Cc1cc(C(=O)Cn2cnc3sc4c(c3c2=O)CCC(C)C4)c(C)n1Cc1ccco1 (configuration not stated) | 106 | 109 | -18 | -1

(listing goes on)
SMILES | Polio RdRp inh | Polio RdRp inh intensity | MenB inh | MbtI inh
CCc1nc2cccnc2n1-c1ccc(CC(=O)N2CCC3(CC2)OCCO3)cc1 | 102 | 103 | -15 | -11
Cc1ccc(C(=O)NC(=S)Nc2ccc(-c3ccc(CO)o3)cc2)cc1 | 99 | 102 | -27 | -17
Cn1nnnc1SC1CCOC1=O (configuration not stated) | 102 | 99 | 22 | -1
O=c1[nH]c2cc(Cl)c(Cl)cc2n1-c1ccncc1 | 102 | 103 | 12 | 7
COC(=O)c1cc2ccsc2n1CC(=O)N1CCCc2ccccc21 | 102 | 107 | 10 | -1
CC(C)NC(=O)Oc1noc2ccc(Cl)cc12 | 104 | 97 | -11 | -5
Cc1cc2oc(=O)cc(COC(=O)CCC3NC(=O)NC3=O)c2cc1C(C)C (configuration not stated) | 98 | 92 | 11 | 18
COc1ccc(C(=O)CC2(O)C(=O)N(CC(N)=O)c3ccccc32)c(OC)c1 (configuration not stated) | 100 | 102 | 9 | 9
Cc1scc(CN(C)Cc2ccccc2)c1C | 102 | 102 | 10 | 1
O=C(O)c1cccc(N2C(=O)c3cccnc3C2=O)c1 | 102 | 102 | -36 | 0
COc1ccc(OC)c(N(C)S(=O)(=O)c2cc(Br)cnc2N)c1 | 105 | 97 | -17 | -9
Cc1ccc(Cn2nnc3c(C)nn4c(-c5cccnc5)nnc4c32)cc1 | 102 | 103 | -3 | 12
CC1CC(=O)C2=C(C1)OC(N)=C(C#N)C21C(=O)Nc2ccccc21 (configuration not stated) | 99 | 103 | -49 | 16
CSC(=S)NCc1cccs1 | 104 | 110 | -19 | .
O=C(NC(Cc1c[nH]c2ccccc12)C(=O)O)c1ccc(Cl)cc1 (configuration not stated) | 104 | 102 | . | -8
Cc1cc(C)c(N=C2SCC(=O)N2Cc2ccco2)c(C)c1 | 102 | 107 | -70 | 2
O=C1CC(Cc2ccccc2)C(=O)N1Cc1ccco1 (configuration not stated) | 100 | 102 | 36* | -10
O=C(CO/N=C/c1ccco1)NCc1ccccc1 | 110 | 106 | 8 | 51*
CCCOc1ccc2c3c(c(=O)oc2c1OCCC)CCC3 | 101 | 104 | . | -5
CCc1ccc([C@H]2C(C#N)=C(N)C(C#N)(C#N)C3=CCN(C(=O)OC)C[C@@H]32)cc1 | 44 | 240 | -51 | .
C=CCNC(=O)c1ccc2c(c1)NC(=O)C(C)N2 (configuration not stated) | 114 | 141 | -3 | 122
Cc1nn(-c2ccccc2)c(C)c1C(=O)OCc1cccc(S(=O)(=O)N(C)C)c1 | 101 | 100 | -33 | 12
COc1ccc(CN(CCC2CCOC(C)(C)C2)C(C)=O)cc1 (configuration not stated) | 102 | 103 | -5 | 0
Cc1cccc(C)c1NC(=O)CSC(=O)c1sc2ccccc2c1Cl | 109 | 104 | -9 | -5
CC(c1nc2ccccc2c(=O)[nH]1)N1CCN(Cc2ccc(Cl)s2)CC1 (configuration not stated) | -3.0* | 15* | -7 | 9
CC(C)c1ccc(C2C(C#N)=C(N)SC(N)=C2C#N)cc1 | 45 | 255 | -31 | .
COCCCn1cnn2c(=O)c3ccccc3nc2c1=O | 95 | 94 | 3 | -1
O=C(O)/C=C\C(=O)Nc1ccccc1SCC(O)Cn1ccc(C(F)(F)F)n1 (configuration not stated) | 108 | 116 | 3 | -8
Cc1cc(C)n2nc(SCC(=O)NC(C)CCc3ccccc3)nc2n1 (configuration not stated) | 103 | 103 | 15 | 9
Fc1ccc(CNc2ccc(N3CCOCC3)cc2)cc1 | 102 | 101 | 11 | 2

Some of the entries above in a different format:
SMILES,Polio RdRp inh,Polio RdRp inh intensity,MenB inh,MbtI inh
O=C1CC(Cc2ccccc2)C(=O)N1Cc1ccco1 (configuration not stated),100,102,36*,-10
O=C(CO/N=C/c1ccco1)NCc1ccccc1,110,106,8,51*
CCCOc1ccc2c3c(c(=O)oc2c1OCCC)CCC3,101,104,.,-5
CCc1ccc([C@H]2C(C#N)=C(N)C(C#N)(C#N)C3=CCN(C(=O)OC)C[C@@H]32)cc1,44,240,-51,.
C=CCNC(=O)c1ccc2c(c1)NC(=O)C(C)N2 (configuration not stated),114,141,-3,122
Cc1nn(-c2ccccc2)c(C)c1C(=O)OCc1cccc(S(=O)(=O)N(C)C)c1,101,100,-33,12

Remaining list, next part.
SMILES | Polio RdRp inh | Polio RdRp inh intensity | MenB inh | MbtI inh
CN(C(=S)NC(=O)c1ccco1)C1CCS(=O)(=O)C1 (configuration not stated) | 107 | 118 | -21 | 17
COc1ccc(C(=O)Nc2nc(-c3ccc(C#N)cc3)cs2)c(OC)c1 | 100 | 98 | -11 | 9
Cc1cccc(OC(=O)Cc2ccc(F)cc2)c1 | 103 | 100 | -14 | .
N#Cc1c(N)nc2c(c1-c1cccnc1)CCCCC2 | 106 | 105 | -9 | .
CCc1ccc2[nH]c(C(=O)Nc3ccccc3C(C)CC)cc2c1 (configuration not stated) | 105 | 112 | -1 | -6
CCCCn1c(=N)n(CC(O)COc2ccc(OC)cc2)c2ccccc21 (configuration not stated) | 101 | 106 | -4 | -13
Cc1nonc1N(Cc1ccc(F)cc1)S(=O)(=O)c1ccccc1 | 101 | 109 | -16 | .
CNC(=O)C12CC3CC(C)(CC(C)(C3)C1)C2 | 103 | 103 | -18 | -26
CCC(=O)Nc1cc(C(F)(F)F)ccc1N1CCCC1 | 103 | 103 | -31 | 0
O=C(NC(C(F)(F)F)C(F)(F)F)OCc1ccc(F)cc1 | 103 | 108 | -5 | -3
Cc1ccc2sc(-c3nc4ccccc4s3)nc2c1 | 104 | 107 | -4 | 0
Cc1nn(-c2ccccc2)c(C)c1SCC(=O)O | 102 | 109 | 4 | -5
CCOC(=O)c1c(C)c(-c2ccccc2)n(CC(=O)N2CCN(c3ccccn3)CC2)c1C | . | . | -2 | 0
Cc1nc(Cl)c(C#N)c2c1CCCC2 | 103 | 100 | -9 | 10
CCOC(=O)c1cc(C)nc(N2CCC(C(N)=O)CC2)c1C#N | 105 | 111 | -17 | -5
CC1CCCCC1NC(=O)COC(=O)c1ccc2c(c1)NC(=O)CS2 (configuration not stated) | 100 | 94 | -17 | 22
O=C1N(Cc2cc(=O)n3ccccc3n2)c2ccccc2S(=O)(=O)N1c1ccc(Cl)cc1 | 99 | 113 | -18 | 10
CC1CC(=O)C2CCCCC2N1 (configuration not stated) | 104 | 101 | -43 | -11
c1ccc(Nc2nc3ccccc3n3cnnc23)cc1 | 102 | 101 | -3 | 192
COC(=O)C1(C)NC(c2ccc(OC)cc2)C2C(=O)N(c3ccccc3)C(=O)C21 (configuration not stated) | 101 | 102 | -21 | -6
Cc1ccc(NC(=O)/N=C2/NC(=O)C(C(C)C)O2)cc1 (configuration not stated) | 103 | 103 | 8 | 2
Cc1ccc(-n2c(SCC(N)=O)nc3ccccc3c2=O)cc1 | 102 | 105 | -49 | .
C1C/C(=N/N=C2\CCCc3nonc32)c2nonc2C1 | 102 | 101 | 34 | 2
CCOC(=O)Cn1cc(/C=C2\C(=O)NC(=O)N(c3ccc(F)cc3)C2=O)c2ccccc21 | 68 | 196 | -30 | -4
CSc1nnnn1-c1cccc(O)c1 | 100 | 102 | -18 | -3
CCOC(=O)c1ccc(NC(=O)CSc2nnc(CNc3ccc(C)cc3C)n2Cc2ccco2)cc1 | 101 | 104 | -46 | 2
COc1ccc(N2Cc3ccccc3C3(CCOCC3)C2=N)cc1 | 101 | 103 | 3 | .
C=CCn1c(COc2cccc3cccnc23)nnc1SCC(=O)O | 102 | 103 | 9 | -6
Cc1cc(=O)[nH]c(SCCC(=O)O)n1 | 101 | 103 | -1 | -4
Cc1[nH]nc2nc(SCC(=O)N3CCCC3)n(-c3ccc(Br)cc3)c(=N)c12 | 99 | 101 | -25 | 0
C/C(=N\C(=O)NN)c1cnn(-c2ccccc2)c1C | 102 | 106 | -3 | -5
C=CCN1C(=O)c2ccc(C(=O)OCc3nc4cc(C(=O)OC)ccc4c(=O)[nH]3)cc2C1=O | 108 | 110 | -24 | -21
Cc1ccc(C(=O)CSC#N)o1 | 99 | 101 | -52 | .
CN(C(=O)Cc1ccc(Br)cc1)c1ccccc1 | 98 | 103 | -32 | -12
COc1cc(CC(=O)Nc2ccccc2N2CCOCC2)cc(OC)c1OC | 102 | 105 | 9 | -13
O=c1c(Cl)c(Nc2ccc3c(c2)OCO3)cnn1C12CC3CC(CC(C3)C1)C2 | 100 | 104 | -5 | -9
COc1ccc(OCCOC(=O)c2n[nH]c3ccccc23)cc1 | 105 | 104 | -12 | -3
Cc1cccc(COn2c(=O)c[n+]([O-])c3ccccc32)c1 | 100 | 103 | -8 | -1
